High-throughput results (PubChem)
D2 PAM – Beta-Arrestin HTS for Positive Allosteric Modulators of the Human D2 Dopamine Receptor: Potentiators | DiscoveRx D2 beta-arrestin cells, luminescence, 90 min; 100% = 57 uM dopamine signal | potentiation, % (no concentration beside the values) | 360,000 tested, 0.23% active | AID 624464, 2012; active = potentiation of 50% or more; inconclusive = 30% to 50%; inactive = 30% or less;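 note: compound concentration not given in the record; tested on top of an EC20 dose of dopamine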
Target sequence (P14416 whole entry, looked up): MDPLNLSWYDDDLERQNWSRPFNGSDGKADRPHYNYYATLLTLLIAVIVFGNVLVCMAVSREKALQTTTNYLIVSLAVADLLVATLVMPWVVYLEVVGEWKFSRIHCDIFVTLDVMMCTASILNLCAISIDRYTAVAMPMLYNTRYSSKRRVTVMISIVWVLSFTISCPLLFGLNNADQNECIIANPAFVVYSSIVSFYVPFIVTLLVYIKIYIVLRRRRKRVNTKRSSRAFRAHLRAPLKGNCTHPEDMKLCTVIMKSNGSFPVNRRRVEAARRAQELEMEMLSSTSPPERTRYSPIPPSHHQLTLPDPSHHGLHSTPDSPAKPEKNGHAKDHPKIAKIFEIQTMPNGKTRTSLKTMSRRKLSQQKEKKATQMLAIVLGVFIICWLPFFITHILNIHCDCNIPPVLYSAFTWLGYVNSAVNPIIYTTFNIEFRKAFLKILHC
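D2 cells co-treated with compound plus 50 nM dopamine (EC20) for 90 min at 37 deg C to detect potentiation. Beta-arrestin recruitment was read as enzyme-fragment luminescence after 1 h at ambient temperature. Full response was set by 57 uM dopamine.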
Six1-Eya2 inh – qHTS Assay for Inhibitors of the Six1/Eya2 Interaction; Homeobox protein SIX1 (Homo sapiens) + Protein phosphatase EYA2 (Homo sapiens), …; AlphaScreen GST-Six1/His-Eya2 binding, biochemical; active compounds read low; control for the full effect not named in the record; activity change, % (test concentration not listed); 360,000 tested, 0.56% active; AID 651725, 2012; in the data active = activity change below about -65%; inconclusive = about -30% to -65%; inactive = above about -30%; note: % is set by controls: 0 for no effect and ±100 for the full control effect
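GST-Six1 + His-Eya2 (5X stock: 250/500 nM); Tris pH 8.0, 300 mM NaCl, 0.05% BSA, 0.02% Tween 20; GSH donor/Ni acceptor beads; 1 h 37 °C dark; AlphaScreen readout.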
CtBP-E1A blk – qHTS Assay for Inhibitors of the CtBP/E1A Interaction; CtBP / adenovirus E1A interaction (AlphaScreen); AlphaScreen GST-E1A/His-CtBP binding, 1536-well; active compounds read low; control for the full effect not named in the record; activity change, % (concentration not given with the values); 340,000 tested, 0.49% active; AID 651724, 2012; in the data active means activity change below about -65%; inconclusive means about -30% to -65%; inactive means above about -30%; note: % is set by controls: 0 for no effect and ±100 for the full control effect
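Homogeneous bead-based format: GST-tagged E1A captured on glutathione donor beads, His-tagged CtBP on nickel acceptor beads; compounds precede bead addition by 2 h at 37 °C.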
TRPML1 inh – qHTS for Inhibitors of the Human Mucolipin Transient Receptor Potential 1 (TRPML1) | Mucolipin-1 (Homo sapiens), Q9GZU1 | activity change, negative = inhibition, % (concentration not given with the values) | TRPML1-inducible cells, Ca2+ dye fluorescence, FDSS; active compounds read low; inhibition of EC80 agonist-evoked calcium signal | 390,000 tested, 0.02% active; in the data active means activity change below about -50%; inconclusive means about -30% to -50%; inactive means above about -30%;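 note: stimulus is agonist 54-4 at its EC80 concentration; % is set by controls: 0 for no effect and ±100 for the full control effect; the text of the record puts the active cut at -80%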
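Tet-induced TRPML1-DL cells loaded with Ca8 no-wash calcium dye were read kinetically on FDSS. Compound addition was followed by EC80 agonist 54-4 (4 uM final); inhibition was read over 110 s.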
TRPML1 agonist – qHTS for Agonists of the Human Mucolipin Transient Receptor Potential 1 (TRPML1); TRPML1-expressing cells, Ca2+ dye fluorescence, FDSS; host cell line not named in the record; reference of the full effect not given here; activation, % (test concentration not listed); 410,000 tested, 0.12% active; Mucolipin-1 (Homo sapiens), Q9GZU1; in the data active = activation above about 50%; inconclusive = about 30% to 50%; inactive = below about 30%; note: 0% is about no effect; the text of the record puts the active cut at 80%
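Calcium fluorescence on an FDSS kinetic reader gave the read-out. Tet-induced TRPML1-DL cells were plated overnight, dye-loaded (Ca8 with quencher, 45-90 min, room temperature, dark), then read 110 s after compound addition, and again 110 s after 4uM final 54-4 (EC80).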
TRPV1 PAM – HTS Assay for Compounds that Act as Potentiators of the Vanilloid Receptor 1; Transient receptor potential cation channel subfamily V member 1 (Homo sapiens), Q8NER1; TRPV1-expressing cells, Fluo-8 calcium influx, capsaicin EC20 potentiation; host cell line not named in the record; control for the full effect not named in the record; potentiation, % at 8.33 µM; 320,000 tested, 0.02% active; AID 540277, 2011; active means potentiation above 80%; inconclusive means 30% to 80%; inactive means below 30%; note: 0% is about no effect
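Cells expressing TRPV1 were dye-loaded with Fluo-8 and read kinetically: 10 s baseline, 3 min after compound (agonist portion), then 2 min after EC20 capsaicin (allosteric enhancer portion). Calcium-bound dye fluorescence at 480/520 nm.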
An asterisk follows results filed as active; ? = inconclusive; . = not tested or not shown.

SMILES,TRPV1 PAM,CtBP-E1A blk,Six1-Eya2 inh,D2 PAM,TRPML1 agonist,TRPML1 inh
Cc1c(C(=O)C(=O)N2CC=C(c3ccccc3)CC2)c2ccccc2n1C,?,0,-8,-9,1.1,-6
O=C(O)C(Cc1cn[nH]n1)=NO,-12,.,-1,-2,-0.6,-4
CCC(=O)c1ccc(OCC(=O)OCC(=O)NCC2CCCCC2)cc1,6,4,2,26,-1.3,9
COc1ccccc1C(=O)NCCC(=O)N1CCN(S(=O)(=O)c2cccc(Cl)c2)CC1,16,.,-3,-3,-0.6,9
O=C(Nc1c(C(=O)N2CCOCC2)cnn1-c1ccccc1)c1ccc(F)cc1,?,1,16,14,0.0,-7
CCCCCn1c(=S)[nH]c2ncccc2c1=O,22,-3,4,5,2.0,26
Cc1ccccc1OCC(=O)OCC(=O)NCc1ccc2c(c1)OCO2,.,7,-4,-8,-0.8,13
C/C(=N\Nc1ccc([N+](=O)[O-])cc1[N+](=O)[O-])c1cccnc1,3,.,-22,4,-0.6,6
COc1ccccc1OCCNC(=O)CNC(=O)c1ccc(Cl)c(Cl)c1,-7,0,1,-2,-0.7,-5
CCOC(=O)[C@H]1[C@H]2COc3ccc(OC)cc3[C@@H]2N2C(=O)c3cc(F)c(F)cc3NC(=O)[C@@]12C,?,-3,1,-11,-0.1,1
COc1ccc(C(=O)Nc2nc3c(s2)CCCC3)cc1S(=O)(=O)N1CCCc2ccccc21,-25,-6,-14,6,0.0,3
Cc1ccc(OCC(=O)Nc2cc(C(=O)O)cc(C(=O)O)c2)cc1C,-3,2,-1,13,0.5,13
COc1ccc(NC(=O)COc2cccc3c2OC(C)(C)C3)cc1OC,-41,0,-3,3,2.2,-1
Cc1cccc(COC(=O)CCCNC(=O)c2ccc(Cl)cc2)c1,-12,10,7,-1,4.2,-14
CCOc1ccc(S(=O)(=O)NCCC(=O)NC2CCC(C)CC2)cc1 (stereo unspecified),.,3,-1,-4,-0.4,-18
O=C(NNC(=O)c1ccc(=O)[nH]c1)c1ccc(NS(=O)(=O)c2cccs2)cc1,-10,1,2,-2,1.0,26
O=C1c2cc([N+](=O)[O-])ccc2-c2ncccc21,-1,.,-14,-1,0.7,-57*
Nc1c(Cl)ncnc1N/N=C/c1ccccn1,6,-86*,-87*,-8,0.2,11
CCS(=O)(=O)NCCc1csc(-c2ccc(OC)c(OC)c2)n1,-6,0,-9,-6,-0.5,26
CCOc1ccc(NS(=O)(=O)c2ccc3ncsc3c2)cc1,-11,3,10,-12,-0.3,6
Cc1cc(C)c2c(=O)n(CC(=O)Nc3ccc(Cl)cc3)sc2n1,-10,-7,-2,-19,9.2,19
CNC(=S)NNC(=O)Cc1ccc(O)cc1,-10,-16,12,3,-0.2,-1
Nc1nc(Cl)nc2c1ncn2[C@@H]1O[C@H](CO)[C@@H](O)[C@H]1O,6,9,2,-17,2.4,15
Cc1ccc(/C=N/Nc2ccc3ccccc3n2)o1,-3,-2,-12,-12,2.6,15
CCN(Cc1ccccc1)S(=O)(=O)c1ccc(S(=O)(=O)N(Cc2ccccn2)Cc2ccco2)cc1,6,1,2,-8,3.1,28
C/C(=N\NC(=O)c1c(Cl)cnn1C)c1cccc(NC(=O)c2ccc(C)cc2)c1,4,-2,12,-4,0.9,-8
Cc1ccc(S(=O)(=O)N(C)CC(=O)Oc2ccc(-c3nnco3)cc2)cc1,-4,0,?,0,-0.2,-7
Cc1cccc(Nc2nc(-c3cccs3)cs2)n1,-4,-2,-3,-9,-0.1,-21
CN(C)c1ccc(-c2nn3c(-c4ccc(Cl)cc4)nnc3s2)cc1,8,12,14,-4,0.1,-7
O=C(NCc1cccs1)c1csc([C@@H]2C[C@H](O)[C@@H](CO)O2)n1,.,7,6,-6,-0.6,.

SMILES,TRPV1 PAM,CtBP-E1A blk,Six1-Eya2 inh,D2 PAM,TRPML1 agonist,TRPML1 inh
CCCCNC(=O)COC(=O)c1ccc(Cl)c(S(=O)(=O)N2CCCC2)c1,-16,0,-1,-11,-0.6,-9
Cc1cccc(N(C(=O)Cn2nnc3ccccc32)C(C(=O)NC(C)(C)C)c2ccsc2)c1 (stereo unspecified),-15,13,2,9,2.4,-3
Cc1noc(C)c1CCC(=O)NC1CCCN(Cc2ccc(Cl)cc2)C1 (stereo unspecified),17,-21,-5,-6,-0.6,-7
COc1ccc(-n2nnnc2SCC(=O)Nc2ccc3c(c2)OCCO3)cc1OC,13,14,-24,-10,-0.8,-2
CCOc1ccc(CCNC(=O)C2CCCN(c3nnc(-n4cccc4)s3)C2)cc1OCC (stereo unspecified),-2,5,2,-5,-1.2,12
O=S(=O)(c1ccccc1)N1CCN(Cc2cccc(Br)c2)CC1,.,0,3,-8,0.9,86
C(=N\n1cncn1)/c1ccc(N2CCOCC2)cc1,-4,-4,3,-15,1.3,-30
COc1ccc(/C=N/NC(=O)c2ccc(COc3ccccc3Cl)o2)c(OC)c1C,20,7,6,-13,0.1,23
CSc1ccccc1-n1nnnc1SCC(=O)NCc1cccs1,-13,0,17,-24,2.5,-5
CNC(=O)CSc1nc2cc(S(=O)(=O)Nc3ccccc3OC)ccc2o1,-1,0,14,-3,2.7,37
C/C(=N\NC(=O)c1ccccc1F)c1ccc2c(c1)Nc1ccccc1S2,?,-14,-8,87*,3.6,36
Cc1ccc2c(c1)C(c1ccccc1)N(C(=O)c1ccc3c(c1)OCO3)CC(=O)N2 (stereo unspecified),-11,19,4,-2,-0.8,-9
Cc1cc(C(=O)Nc2ccc3c(c2)OCCO3)c2ccccc2n1,-3,0,-5,-6,-0.6,35
O=Nc1c(-c2c(O)[nH]c3cc(Br)ccc23)[nH]c2ccccc12,9,?,-71*,2,1.9,14
Cc1c(-n2c(SCC(N)=O)nc3ccccc3c2=O)c(=O)n(-c2ccccc2)n1C,2,3,5,-8,-0.4,12
Cc1ccc(NC(=O)Cn2nnc3ccccc32)cc1,-2,6,7,-3,-0.2,-16
CCCn1c(=N)n(CC(=O)c2ccco2)c2ccccc21,15,4,-2,-7,2.0,23
Cc1ccccc1-c1nnc(SCC(=O)N(CC(C)C)c2c(N)n(CC(C)C)c(=O)[nH]c2=O)n1C,0,8,3,0,0.7,5
COc1cccc(CC(=O)Nc2nc(-c3ccc(OC)c(OC)c3)cs2)c1,2,-10,-11,2,1.7,15
COc1ccc(NC(=O)CSCC(=O)N(C)CCOc2ccc(Cl)cc2)cc1,10,7,0,-8,-0.5,12
Cc1ccc(SCCC(=O)NC(C)C)cc1,-1,5,4,-8,-1.0,8
COc1ccc(C2C(C(=O)Nc3cccc(OC)c3)c3ccccc3C(=O)N2C)cc1 (stereo unspecified),8,9,6,-6,0.7,-2
Cc1ccc(Cl)c(NC(=O)CCl)c1Cl,-4,10,0,-7,0.2,23
Cc1ccc2c(c1)NC(C(C)(C)C)CO2 (stereo unspecified),6,-2,-6,-7,-1.1,-3
CC(=O)N(CN1C(=O)CCC1=O)c1cccc(Cl)c1,-8,5,7,-3,-0.5,16
CCCCN(CC)C(=O)CSc1nc2c(sc(=S)n2-c2ccc(OCC)cc2)c(=O)[nH]1,1,0,6,0,-0.3,-21
O=C(Nc1ccn(Cc2c(F)c(F)c(F)c(F)c2F)n1)c1ccc(COc2ccccc2Cl)cc1,0,6,1,-6,2.3,11
CCOc1ccc(-c2nc(CSCC(=O)NCC3CCCO3)c(C)o2)cc1 (stereo unspecified),1,3,-1,0,-1.2,3
O=C(OCCOc1cccc(Cl)c1)c1cc(S(=O)(=O)N2CCOCC2)ccc1F,-1,12,4,-10,0.0,0
CCOC(=O)c1c(C)n(-c2ccc(C)cc2)c2ccc(O)c(CN(C)C)c12,-5,-16,1,-8,-1.0,-10

Part of the list above in order of SMILES length, lowest first:
SMILES,TRPV1 PAM,CtBP-E1A blk,Six1-Eya2 inh,D2 PAM,TRPML1 agonist,TRPML1 inh
C(=N\n1cncn1)/c1ccc(N2CCOCC2)cc1,-4,-4,3,-15,1.3,-30
O=S(=O)(c1ccccc1)N1CCN(Cc2cccc(Br)c2)CC1,.,0,3,-8,0.9,86
CCOc1ccc(CCNC(=O)C2CCCN(c3nnc(-n4cccc4)s3)C2)cc1OCC (stereo unspecified),-2,5,2,-5,-1.2,12

The results go on.
SMILES,TRPV1 PAM,CtBP-E1A blk,Six1-Eya2 inh,D2 PAM,TRPML1 agonist,TRPML1 inh
Cc1ccc(S(=O)(=O)N(C)CCCC(=O)Nc2ccccn2)cc1,.,1,0,-10,0.8,12
COc1cc2c(C#CCCO)c(-c3ccsc3)oc(=O)c2cc1OC,.,-18,-18,4,-0.8,-2
COCCN(C(=O)C1CCC1)c1nnc(-c2cccnc2)s1,12,2,0,6,-0.3,-9
COc1cc(C(=O)OCC(=O)Nc2c(C)n(C)n(-c3ccccc3)c2=O)c([N+](=O)[O-])cc1OC,-2,4,-7,-13,0.6,-1
CCc1ccc(N2CC(C(=O)Nc3cccnc3)CC2=O)cc1 (stereo unspecified),-7,-1,7,-15,-0.6,3
Cc1ccc(OC(=O)N(C)C[C@@H]2OCc3cn(nn3)CCCC(=O)N([C@@H](C)CO)C[C@H]2C)cc1,.,4,6,-5,-0.4,13
